VDR inh – blocks the human vitamin D receptor | P11473 | VDR-SRC2-3 peptide fluorescence polarization, 2 h | Potency, µM, for inactives: max response, negative = inhibition, most hits filed as inhibitors | 0.93% of 400,000 active; active = well fitted inhibition curve with a large enough effect; inconclusive = small, poorly fitted or top-dose-only effect, or another doubt; inactive = no such curve, though single readings can be large or run the other way; also: series mostly up to about 120 µM
Target sequence (P11473 whole entry, looked up): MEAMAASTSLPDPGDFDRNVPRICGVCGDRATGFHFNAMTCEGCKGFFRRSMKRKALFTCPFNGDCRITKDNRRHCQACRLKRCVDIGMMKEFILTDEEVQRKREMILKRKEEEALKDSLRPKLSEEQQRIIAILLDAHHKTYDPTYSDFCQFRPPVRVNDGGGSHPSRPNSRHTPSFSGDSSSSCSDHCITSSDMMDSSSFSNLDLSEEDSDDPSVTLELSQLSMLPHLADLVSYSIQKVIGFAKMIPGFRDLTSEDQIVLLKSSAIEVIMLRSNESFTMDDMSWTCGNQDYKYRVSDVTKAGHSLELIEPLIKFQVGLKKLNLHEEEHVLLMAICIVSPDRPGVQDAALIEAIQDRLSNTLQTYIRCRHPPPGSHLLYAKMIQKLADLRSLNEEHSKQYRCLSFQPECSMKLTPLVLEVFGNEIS
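The screen uses fluorescence polarization to detect compounds that interfere with recruitment of the SRC2-3 coactivator peptide to VDR; plates are read after 2 h at room temperature.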
The depositor's hits bear a star; ? = inconclusive; & = joins results of further samples. % is scaled to controls: 0 for no effect and ±100 for the full control effect; potency is read from the fitted curve at half-maximal effect. These rows are one share of the data (hit frequency here may not be typical).

Start of the data: the first five entries as a preview:
> Cc1ccc(C(=O)NCC(=O)OCC(=O)Nc2ccc(Cl)cc2C(F)(F)F)cc1C
  VDR inh = -16%
> c1nc(NCc2ccc3c(c2)OCO3)c2cc(-c3ccc4c(c3)OCCO4)ccc2n1
  VDR inh = -6%
> COc1cc(NS(=O)(=O)c2cc3c(cc2C)N(C)CCO3)cc(OC)c1OC
  VDR inh = -3%
> CCCCn1c(CNC(=O)C23CC4CC(CC(C4)C2)C3)nnc1SCC(=O)Nc1nnc(C)s1
  VDR inh = 8%
> COc1cc(NC(=O)c2ccccc2)c(OC)cc1NC(=O)CN1CCN(c2ccccn2)CC1
  VDR inh = -15%

Results, repeating the preview:
> Cc1ccc(C(=O)NCC(=O)OCC(=O)Nc2ccc(Cl)cc2C(F)(F)F)cc1C
  VDR inh = -16%
> c1nc(NCc2ccc3c(c2)OCO3)c2cc(-c3ccc4c(c3)OCCO4)ccc2n1
  VDR inh = -6%
> COc1cc(NS(=O)(=O)c2cc3c(cc2C)N(C)CCO3)cc(OC)c1OC
  VDR inh = -3%
> CCCCn1c(CNC(=O)C23CC4CC(CC(C4)C2)C3)nnc1SCC(=O)Nc1nnc(C)s1
  VDR inh = 8%
> COc1cc(NC(=O)c2ccccc2)c(OC)cc1NC(=O)CN1CCN(c2ccccn2)CC1
  VDR inh = -15%
> COc1ccccc1-c1nnc2n1N=C(C)CS2
  VDR inh = 21%
> Cc1cccc(C(=O)NCC(=O)N2CCN(S(=O)(=O)/C=C/c3ccccc3)CC2)c1
  VDR inh = 8%
> COc1cc(S(=O)(=O)N(Cc2ccc(C)cc2)Cc2ccco2)ccc1-n1cnnn1
  VDR inh = 0%
> O=C(c1cc([N+](=O)[O-])cc([N+](=O)[O-])c1)N1CCN(C(=O)c2ccco2)CC1
  VDR inh = 7%
> N/C(Cc1ccc([N+](=O)[O-])cc1)=N\OC(=O)COc1ccc2ccccc2c1
  VDR inh = 3%

> CCS(=O)(=O)CCSc1nc(C)cc(C)n1
  VDR inh = 17%
> Cc1ccc(S(=O)(=O)N(C)c2ccc(OC(=O)CN3C(=O)NC4(CCCC4)C3=O)cc2)cc1
  VDR inh = -2%
> COc1cc(CN2C(=S)NC(C)(C)CC2(C)O)cc(OC)c1 (stereo not given)
  VDR inh = -7%
> Cc1ccc([N+](=O)[O-])cc1NC(=O)CN1CCCCC1
  VDR inh = 0%
> O=C(Nc1ccc(Cl)cc1)N1CCC(CO)(Cc2ccccc2)CC1
  VDR inh = 13%
> Cc1cc(OCC(=O)OCC(=O)c2ccc[nH]2)ccc1Cl
  VDR inh = -8%
> COc1cccc(C2=NOC(C(=O)NCc3cccs3)C2)c1 (stereo not given)
  VDR inh = -4%
> CC(C)[C@H](NC(=O)OCc1ccccc1)C(=O)OCC(=O)Nc1c(F)cccc1F
  VDR inh = -16%
> CCCCNC(=O)N1CCc2ccccc2C1
  VDR inh = ?
> O=S(=O)(Nc1ccccc1N1CCCCC1)c1cccs1
  VDR inh = -1%

> NS(=O)(=O)c1ccc(CCNC(=O)Cn2c(-c3cccs3)cc3ccccc32)cc1
  VDR inh = 12%
> CCCCCCCCN[C@@H](C)[C@H](O)c1ccc(SC(C)C)cc1
  VDR inh = -6%
> COCCCNC(=O)C(=O)N/N=C/c1ccc(OCC(=O)Nc2cccc(Cl)c2C)c(OC)c1
  VDR inh = -4%
> COc1ccc(C(=O)CSc2nnc(-c3cc4ccccc4cc3O)n2Cc2ccco2)cc1
  VDR inh = -10%&-8%
> Cc1cc(/C=C(\C#N)C(=O)NC2CCCCCC2)c(C)[nH]1
  VDR inh = -10%
> COCCN(C(=O)c1snc(C(N)=O)c1N)C(C(=O)NC1CCCCC1)c1ccc(N(C)C)cc1 (stereo not given)
  VDR inh = -21%
> CCC(C)n1c(NC(=O)c2ccccc2)c(C#N)c2nc3ccccc3nc21 (stereo not given)
  VDR inh = ?
> Cc1ccc(S(=O)(=O)NNC(=O)c2cc(C)cs2)cc1
  VDR inh = -23%
> CCC(=O)N1CC2(CC(c3cccc(NC(=O)CC(c4ccccc4)c4ccccc4)c3)=NO2)C[C@H]1C(N)=O (stereo not given in full)
  VDR inh = -15%
> CC(=O)Nc1ccc(NC(=O)C2CCCN(S(=O)(=O)c3ccc(Cl)cc3)C2)cc1 (stereo not given)
  VDR inh = 0%

> CC(NC(=O)CSc1ncccn1)c1ccccc1 (stereo not given)
  VDR inh = 7%
> CC(C)(C)OC(=O)N1CCC(Cc2cc(-c3cccnc3)no2)(C(=O)O)CC1
  VDR inh = 9%
> Cc1ccccc1/C=C1\OC(=O)c2ccccc21
  VDR inh = 3%
> O=C(/C=C/c1ccccc1[N+](=O)[O-])NCCCn1ccnc1
  VDR inh = 9%
> O=C(CCCN1C(=O)/C(=C\c2ccco2)SC1=S)Nc1ccc2ccccc2c1
  VDR inh = -18%
> COc1ccccc1C(=O)N1C(CC(=O)Nc2cc(Cl)ccc2C)C(=O)NC2CCCCC21 (stereo not given)
  VDR inh = 0%
> O=S(=O)(NCC1CCCO1)c1ccc2ccccc2c1 (stereo not given)
  VDR inh = -15%
> COc1cc(C(=O)O[C@H]2C/C(C)=C/CC[C@@]3(C)O[C@@H]3[C@H](O)[C@@H]2C(C)C)cc(OC)c1OC
  VDR inh = -5%
> Cc1cc(NCc2ccncc2)ccc1Br
  VDR inh = -9%
> COCCn1c(SCC(=O)Nc2cc(C)on2)nc2c(c1=O)SC(C)C2 (stereo not given)
  VDR inh = 2%

> Cc1ccc(C(=O)N2c3ccc(F)cc3CCC2C)o1 (stereo not given)
  VDR inh = -4%
> CCC(C(=O)NCc1ccc(F)cc1)N(Cc1ccco1)C(=O)c1snc(C(N)=O)c1N (stereo not given)
  VDR inh = -2%
> CC(C)OC(=O)CSc1nc2cc3c(cc2cc1C#N)OCO3
  VDR inh = 5%
> O=C(c1ccncc1)c1ccc(N2CCN(C3CC(=O)N(Cc4cccs4)C3=O)CC2)cc1 (stereo not given)
  VDR inh = -14%
> CCSc1nccc(-c2nn(-c3ccc(C)cc3)ccc2=O)n1
  VDR inh = 5%
> Cc1ccccc1N=C1N=C(N)c2ccccc21
  VDR inh = -14%
> Cc1cc(C)cc(NC(=O)CSc2nc(CSc3ccc(Cl)cc3)cc(=O)[nH]2)c1
  VDR inh = 14%
> Cc1cccc(C)c1NC(=O)Cn1c(=O)n(Cc2ccc(C(=O)NCc3ccco3)cc2)c(=O)c2sccc21
  VDR inh = 0%
> CC(C(=O)Nc1cccc(S(=O)(=O)N2CCOCC2)c1)N1CCN(C)CC1 (stereo not given)
  VDR inh = -10%
> Cc1ccc(S(=O)(=O)N2[C@@H](c3ccc(Br)cc3)C(C(=O)O)=CC[C@H]2c2ccc(C(C)C)cc2)cc1
  VDR inh = ?

> CCOc1ccc(N(CCCCO)C(=S)NC(=O)c2ccc(C)c(Br)c2)cc1
  VDR inh = -17%
> Cc1cccc(CSc2ccc3nnc(CCNS(=O)(=O)c4ccccc4)n3n2)c1
  VDR inh = 3%
> O=S(=O)(NCCC1CC1(Cl)Cl)c1ccccc1 (stereo not given)
  VDR inh = 0%
> CCCn1nnc(NC(=O)C(c2ccccc2)c2ccccc2)n1
  VDR inh = 3%
> O=C(OCC(=O)N1CCCC1)c1c[nH]c2ccccc12
  VDR inh = -11%
> O=C(CCCSc1nc2ccccc2[nH]1)NCc1ccccc1Cl
  VDR inh = 7%
> COc1cc(/C=C/C(=O)OCC(=O)NCCN2C(=O)CSC2=O)ccc1OC(F)F
  VDR inh = 9%
> CCCCOc1ccc(C(=O)NNC(=O)C2C3CCC(C3)C2C(=O)O)cc1 (stereo not given)
  VDR inh = -4%
> Cc1cccc(SC2CCN(Cc3nc(CC4CC4)no3)CC2)c1
  VDR inh = 6%
> CN1CCN(S(=O)(=O)c2ccc(NC(=O)Nc3cccc(Cl)c3)cc2)CC1
  VDR inh = 14%

> Cc1ccc(-c2ccc(C(=O)O)[nH]2)cc1
  VDR inh = -10%
> O=C(NCCc1csc(-c2cccnc2)n1)c1ccc(Br)o1
  VDR inh = -11%
> CCC1CCCCN1C(=S)NC1CCCCC1 (stereo not given)
  VDR inh = 8%
> COC(=O)[C@@H](NC(=O)NCc1ccco1)C(C)C
  VDR inh = 8%
> Cc1nn(CC(=O)Nc2cc(S(=O)(=O)N3CCOCC3)ccc2Cl)c(C)c1[N+](=O)[O-]
  VDR inh = -12%
> Cn1nnnc1SCCNCc1ccccc1OCc1ccc(F)cc1
  VDR inh = 8%
> COc1ccc(CCNC(=O)C(C(=O)c2ccccc2)n2ccccc2=O)cc1OC (stereo not given)
  VDR inh = -11%
> O=C(/C=C/c1cccs1)Nc1scc(-c2ccccc2)c1C(=O)O
  VDR inh = -7%
> CCOc1ccc(NC(=O)C2Cc3ccccc3N2C(=O)c2ccccc2)cc1 (stereo not given)
  VDR inh = 5%
> O=C1OC(C(=O)Nc2cc(C(F)(F)F)ccc2Cl)Cc2ccccc21 (stereo not given)
  VDR inh = 1%

> CCOc1ccccc1NC(=O)c1ccccc1-c1ccccc1
  VDR inh = 7%
> COc1cc(CCC(=O)NCc2ccc3c(c2)OCO3)cc(OC)c1OC
  VDR inh = -12%
> O=[N+]([O-])c1cc2c(c(CSc3nnc4ccccn34)c1)OCOC2
  VDR inh = -7%
> Cc1ccc(S(=O)(=O)NC(CCC(N)=O)C(=O)NCc2ccc3c(c2)OCO3)c(C)c1 (stereo not given)
  VDR inh = -11%
> Cc1ccc2c(c1)c(C1=NC(=S)NC1=O)c(O)n2C
  VDR inh = 4%
> O=C(NCc1ccccc1)C1CCCN(S(=O)(=O)c2ccc(F)cc2)C1 (stereo not given)
  VDR inh = -17%
> CC1CCCCC1NC(=O)Cn1cccc1C(=O)c1ccccc1 (stereo not given)
  VDR inh = -9%
> O=C(CCS(=O)(=O)c1cc(Br)cc2c1N(C(=O)C1CC1)CC2)Nc1ccc(F)cc1
  VDR inh = -29%
> COc1ccc(CCNC(=O)CC2Oc3ccc(Cl)cc3NC2=O)cc1OC (stereo not given)
  VDR inh = 3%
> CC1CN(C(=O)COC(=O)c2ccccc2O)CC(C)O1 (stereo not given)
  VDR inh = 8%

> CCc1nccn1Cc1cc(C=O)ccc1OC
  VDR inh = -10%
> COc1ccc(CC(=O)Nc2ccc(S(=O)(=O)N3CCOCC3)cc2)cc1
  VDR inh = -20%
> CCN(C(=O)c1cn(C)c(=O)c2cc(OC)c(OC)cc12)c1cc(OC)ccc1OC
  VDR inh = -2%
> CC(=O)c1cccc(CN2CCC(CO)(CCOc3ccccc3)CC2)c1
  VDR inh = -16%
> CC(=O)C1=C(C)NC(C)=C(C(C)=O)C1c1cccs1
  VDR inh = 2%
> COc1cc(/C=C/C(=O)OCC(=O)NC(=O)NC2CCCCC2C)ccc1OC(F)F (stereo not given)
  VDR inh = 4%
> Cc1ccsc1/C=N/Nc1ncc(Cl)cc1Cl
  VDR inh = 4%
> Cc1ccc(NC(=O)CC(NCCN2CCOCC2)C(=O)O)cc1Cl (stereo not given)
  VDR inh = 2%
> CCOC(=O)C1=C(CSc2nc3c(cc2C#N)CCC3)OC(N)=C(C#N)C1c1ccccc1 (stereo not given)
  VDR inh = 9%
> COc1cc2c(cc1OC)C(c1ccc(N(C)C)cc1)NCC2 (stereo not given)
  VDR inh = 5%

> CC(=O)c1ccc(NC(=O)C(=O)c2cn(CC(=O)N3CCCCC3)c3ccccc23)cc1
  VDR inh = -6%
> Cc1oc2c(c1C(=O)Nc1ccccc1Br)C1=NCCN1C=N2
  VDR inh = 11%
> CC(C)C(NC(=O)c1ccc(F)cc1)C(=O)N1CCN(c2ccccn2)CC1 (stereo not given)
  VDR inh = 11%
> O=[N+]([O-])c1cccc(Cl)c1CSc1ccccn1
  VDR inh = -11%
> COc1ccc(CCNC(=O)C/C(C)=N/NC(=O)c2ccc(N)cc2)cc1OC
  VDR inh = 15%
> Cc1ccc(OCC(=O)NCCCNC(=O)c2ccncc2)cc1C
  VDR inh = -1%
> COC(=O)C1OC(=O)C2OC23[C@]2(C)C(OC(C)=O)CC4C(C)(C)C(=O)CC[C@]4(C)C2CC[C@@]13C (stereo not given in full)
  VDR inh = -7%
> COc1cccc(NC(=O)CN2C(=O)COc3ccc(Cl)cc32)c1
  VDR inh = -17%
> Cc1cc2cc(CCNC(=O)c3cccs3)c(=O)[nH]c2cc1C
  VDR inh = 2%
> CCOC(=O)CSc1nc(-c2ccccn2)ncc1OC
  VDR inh = -11%

> CCCn1c(=S)[nH]c2ccc(C(F)(F)F)cc21
  VDR inh = -7%
> CCCn1nc(CC(=O)O)c2ccccc2c1=O
  VDR inh = -10%
> COc1ccc(CNC(=O)CSc2nc3ccccc3nc2Cc2ccccc2OC)cc1
  VDR inh = -3%
> O=C(NOCc1ccccc1)c1ccc(Cl)cc1Cl
  VDR inh = 4%
> CC1(c2ccc(Cl)cc2)CC(C)(C)N(C(=O)c2ccccc2)c2ccccc21 (stereo not given)
  VDR inh = 6%
> COC(=O)c1cc2ccccc2n1Cc1ccc(Cl)nc1
  VDR inh = -8%
> O=C(NCCCN1CCOCC1)C(Sc1ccccc1)c1ccccc1 (stereo not given)
  VDR inh = 10%
> CCOC(=O)c1cccc(NC(=O)CCS(=O)(=O)c2ccc3c(c2)CC(=O)N3C)c1
  VDR inh = 3%
> COc1ccc(-n2ccnc(NCCc3ccccc3)c2=O)cc1OC
  VDR inh = 0%
> CCN(CC)CCCNC(=O)C1CCN(C(=O)c2oc3cc4sc(N(C)C)nc4cc3c2C)CC1
  VDR inh = -9%

Among those listed so far, three have a CF3 group:
> Cc1ccc(C(=O)NCC(=O)OCC(=O)Nc2ccc(Cl)cc2C(F)(F)F)cc1C
  VDR inh = -16%
> O=C1OC(C(=O)Nc2cc(C(F)(F)F)ccc2Cl)Cc2ccccc21 (stereo not given)
  VDR inh = 1%
> CCCn1c(=S)[nH]c2ccc(C(F)(F)F)cc21
  VDR inh = -7%

Carrying on:
> CCOC(=O)COc1ccc(-c2nnn(CC(=O)Nc3ccccc3)n2)cc1
  VDR inh = -5%
> CCN(C(=O)CSc1nnc(C(C)N(C)C)n1-c1ccc(F)cc1)C1CCS(=O)(=O)C1 (stereo not given)
  VDR inh = -3%
> Cc1oc2ncn(CC(C)C)c(=O)c2c1C(=O)NCCCN1CCC(C)CC1
  VDR inh = 15%
> c1ccc(Cc2cc[n+](Cc3ccccn3)cc2)cc1
  VDR inh = -4%

Screens deposited in PubChem by National Center for Advancing Translational Sciences (NCATS).
